Source: PubChem
S aureus helic: S. aureus DNA helicase inhibition. purified S. aureus helicase, fluorescence unwinding assay; about half of the hits fall short of the stated cut. inhibition, %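 (tested at about 80 µM)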. 120,000 tested, 0.05% active;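 active means both duplicates at 50% or more, or one of them with a favoured structure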;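 further: 0% = mean of negative control wells and 100% = mean of positive control wells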
MgrA-DNA mod: S. aureus MgrA-DNA binding modulation. fluorescence polarization. inhibition, %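 (about 10 µg/mL by stock and volumes)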. 84,000 tested, 0.13% active. AID 602314;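 active means above 50% in either of two replicates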;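 further: 0% = protein plus DNA without compound and 100% = DNA alone without protein; higher means less MgrA bound to DNA so lower polarization; one replicate is shown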
Starred values were filed as active, the others as inactive; · = not tested or not shown. Not all compounds are listed. The share of hits here may be higher or lower than overall.

S aureus helic	MgrA-DNA mod	SMILES
-115	·	CCN(CC)c1ccc2cc(-c3nc4ccccc4c(=O)[nH]3)c(=N)oc2c1
·	-1.1	Cn1nnc(-c2cc(Cl)cc(Cl)c2)n1
5	-2.2	CCOC(=O)Cc1csc(NC(=O)CSc2nc3c(C)c(C)ccc3cc2C#N)n1
27	·	COc1cccc(CNn2c(-c3cccc(C)c3)nc3ccccc3c2=O)c1O
-3	·	CCN(CC)S(=O)(=O)c1cccc(C(=O)N/N=C/c2c(C)nn(-c3ccccc3)c2N2CCCC2)c1
-5	·	CN(C)c1ccnc(C(=O)O)c1
3	·	COc1ccc(C(=O)SC2=NC(C)CC(=O)N2)cc1OC (stereo unspecified)
-15	·	CCN(CC)S(=O)(=O)c1cccc(C(=O)N[C@H](C(=O)NCc2ccc3c(c2)OCO3)C(C)C)c1
2	·	COc1ccc(CCN2C(=O)C(C(C)C)NC2=S)cc1OC (stereo unspecified)
·	-1.9	CC(C)(C)c1nnc(-c2cnccc2C(F)(F)F)o1
-6	-0.5	CS(=O)(=O)Nc1ccc(C(=O)N2CCN(c3ccccc3)CC2)cc1
14	·	CN1CCN(C(=O)C2c3ccccc3Oc3ccccc32)CC1
·	1.9	O=C1CCC2=C(CCCC2)N1c1ccccc1
·	0.9	CN(C)CCc1c[nH]c2ccc(CS(=O)(=O)N3CCCC3)cc12
0	·	CCOC(=O)c1c(NC(=O)Cn2c(=O)cc(C)[nH]c2=O)sc(C(=O)NC)c1C
·	2.8	Cc1ccc(NC(=S)N2C(C)CCCC2C)c(C)c1 (stereo unspecified)
11	-1.9	CCCOc1ccc(C(=O)N2CCCC2C(=O)O)cc1 (stereo unspecified)
-1	-5.4	NCC12CC3CC(C1)CC(CN)(C3)C2
2	1.2	Cc1ccc(SCC2CNC(c3ccc(N(C)C)cc3)O2)cc1 (stereo unspecified)
·	-0.3	CCCCOc1cc(CC2CNC(=O)N2)ccc1OC (stereo unspecified)
·	-0.5	Cc1cc(C)c(NC(=O)CSCC(=O)c2ccc(Cl)cc2)c(C)c1
-1	·	CC(Oc1ccc(C(=O)c2ccc(F)cc2)cc1)C(=O)NC(N)=O (stereo unspecified)
1	·	Cc1cc(C(=O)CSc2nnc(Cc3ccccc3)o2)c(C)n1Cc1ccc2c(c1)OCO2
3	-1.3	CCN1C(=O)C(OC(=O)c2cscn2)CC1c1ccc(OC)cc1 (stereo unspecified)
3	·	O=C(O)C1CCCN(S(=O)(=O)c2ccc(Cl)cc2)C1 (stereo unspecified)
-2	·	Cc1ccc(NC(=O)C2CCCO2)cc1 (stereo unspecified)
-23	·	CCOC(=O)c1c(CN2CCC(C)CC2)oc2ccc(OC)cc12
-4	·	COc1ccc(-n2c3nc4ccccc4nc3c3c(=N)oc(C)nc32)cc1
·	1.1	N#Cc1c(F)cccc1-n1cccc1
14	-0.7	Cc1ccc2nc(Cl)c3cc(C(=O)NC(C)CCc4ccco4)sc3c2c1 (stereo unspecified)

At a glance, part of the list above:
S aureus helic	MgrA-DNA mod	SMILES
-2	·	Cc1ccc(NC(=O)C2CCCO2)cc1 (stereo unspecified)
-23	·	CCOC(=O)c1c(CN2CCC(C)CC2)oc2ccc(OC)cc12
-4	·	COc1ccc(-n2c3nc4ccccc4nc3c3c(=N)oc(C)nc32)cc1
·	1.1	N#Cc1c(F)cccc1-n1cccc1
14	-0.7	Cc1ccc2nc(Cl)c3cc(C(=O)NC(C)CCc4ccco4)sc3c2c1 (stereo unspecified)

The list goes on:
S aureus helic	MgrA-DNA mod	SMILES
·	0.7	Cc1noc(C)c1C(=O)N1CCC(C(=O)c2ccccc2)CC1
11	·	COc1cccc(/C=N/c2sc3c(c2C#N)CCCC3)c1O
1	1.6	C[N+]1(CCn2ccc3ccccc32)CCCCC1
5	·	O=C(O)c1nn(CCO)c(=O)c2ccccc12
6	1.9	COc1ccc(NC(=S)Nc2ccn(C)n2)c(OC)c1
·	0.1	NC(=O)c1cnccc1C(F)(F)F
-31	1.7	Cc1ccc(NCC(=O)O)cc1
13	0.1	COCC(C)NC(=O)c1cccc(OC)c1 (stereo unspecified)
-1	-2.5	CC(C)(C)c1ccc(NC(=O)COC(=O)Cc2ccsc2)cc1
·	-1.8	CC(C)S(=O)(=O)c1csc(NC(=O)N2CCCCC2)c1Cl
-8	·	O=C(/C=C/c1ccc(Br)o1)OCc1cc(=O)oc2cc3c(cc12)CCC3
·	1.1	CNC(=O)c1c(I)c(C(=O)NCC(=O)Nc2c(I)c(C(=O)O)c(I)c(C(=O)NCCO)c2I)c(I)c(N(C)C(C)=O)c1I
6	·	CC1C2CC(CC2=NNC(=O)c2cccs2)C1(C)C (stereo unspecified)
-15	·	Cc1nn(C(C)(C)C)c(C)c1/C=N/OC(=O)c1cccs1
10	0.8	O=C(Nc1ccccn1)c1ccccc1O
-17	·	CC1(C)CC(=O)C2=C(C1)N(Cc1ccccc1)CN(Cc1ccco1)C2
5	·	CSc1ncc2c(=O)n(Cc3ccccc3)ccc2n1
8	-0.5	CCC(=O)NC1CCC(c2ccccc2)CC1 (stereo unspecified)
15	-2.2	Nc1cc(-c2ccccc2)nn1Cc1ccc(Cl)cc1
-11	·	COc1cccc(CNC(=O)C(C)N2Cc3ccccc3C2=O)c1 (stereo unspecified)
9	·	O=C(CN(CCO)CC(=O)Nc1ccc(C(F)(F)F)cc1)Nc1ccc(C(F)(F)F)cc1
0	0.5	S=C(NC1CCCCC1)C12CCC3CC(CC(C3)C1)C2
13	0.1	COC(=O)c1cc2occc2n1C
1	-0.5	CCOc1ccccc1C(=O)NC1CC2CCCC(C1)N2Cc1nnnn1Cc1ccco1 (stereo unspecified)
8	3.0	Cc1nc(C)c(C(=O)N/N=C/c2ccc(O)cc2O)cc1C(=O)N/N=C/c1ccc(O)cc1O
·	0.8	Fc1cc2c(c(CSc3nc4ccccc4s3)c1)OCOC2
-14	·	Cc1ccsc1C(=O)OC1CCOC1=O (stereo unspecified)
15	·	Cc1cccc(COc2nn[nH]n2)c1
14	·	COC(=O)c1sccc1NC(=O)C1c2ccccc2Oc2ccccc21
·	-0.5	O=C1CC(C(F)(F)F)=NN1

Five entries from above, with two lines to a compound.
Every second line gives: S aureus helic, MgrA-DNA mod
> O=C(O)c1nn(CCO)c(=O)c2ccccc12
→ 5, ·
> COc1ccc(NC(=S)Nc2ccn(C)n2)c(OC)c1
→ 6, 1.9
> NC(=O)c1cnccc1C(F)(F)F
→ ·, 0.1
> Cc1ccc(NCC(=O)O)cc1
→ -31, 1.7
> COCC(C)NC(=O)c1cccc(OC)c1 (stereo unspecified)
→ 13, 0.1

(further entries)
S aureus helic	MgrA-DNA mod	SMILES
12	2.5	O=C1NC(c2cccc(F)c2)=N/C1=C/c1cc2c(cc1Cl)OCO2
2	-2.1	N#CNC1=NCN(C2CCCCC2)CN1
·	0.3	Clc1ccc(C=C2c3ccccc3-c3ccccc32)cc1
1	0.6	CCc1[nH]nc2c1C(C1C=CCCC1)C(C#N)=C(N)O2 (stereo unspecified)
19	·	Cc1ccc(S(=O)(=O)N2CCCC(c3nnc4n3-c3ccccc3SC4)C2)cc1 (stereo unspecified)
12	·	O=C(/C=C/c1ccccc1)NCc1n[nH]c(=O)c2ccccc12
21	-1.1	O=C(Nc1ccncc1)c1c(Cl)nc2sccn12
-8	1.1	O=C(O)CCC(=O)Nc1ccccc1O
6	·	Cc1nc2nc(N)nn2c(C)c1CC(=O)NC(C)c1ccccc1 (stereo unspecified)
23	·	COc1ccc(CCNc2c[nH]c(=O)[nH]c2=O)cc1OC
11	·	N#CCCn1c(SCC(=O)NCC23CC4CC(CC(C4)C2)C3)nc2ccccc21
·	1.4	CSc1scc(NS(=O)(=O)c2ccc(Cl)cc2)c1S(=O)(=O)C(C)C
-19	·	O=C(O)CCC(=O)N1CCC(Oc2nnnc3ccccc23)CC1
13	·	COCn1ccnc1P(=O)(O)c1ccccc1
9	-8.9	O=S(=O)(Nc1ccc(S(=O)(=O)Nc2ncccn2)cc1)c1ccccc1
8	-0.6	CC1CCCCN1c1nnc(NC(=O)Nc2ccccc2C(F)(F)F)s1 (stereo unspecified)
-5	·	Cc1nc(-c2ccccc2)sc1C(=O)NCc1ccco1
11	·	Cc1ccc2[nH]c3c(c2c1)CCC/C3=N/O
2	-0.6	CCc1ccc(N2C(N)=C(C#N)C3(C(=O)Nc4ccccc43)C3=C2CCCC3=O)cc1 (stereo unspecified)
6	·	Cc1cc(=O)n2c(n1)NC(Nc1ccc(C(C)C)cc1)=NC2c1ccccc1 (stereo unspecified)
27	·	CCC(Sc1nc2ncccc2[nH]1)C(=O)N1CCCCCC1 (stereo unspecified)
8	·	CCOC(=O)c1oc2ccccc2c1COC(=O)C12CCC(=O)N1c1ccccc1S2 (stereo unspecified)
8	-5.7	N#CCC(=O)c1ccc(N)cc1
4	·	Cc1nn(C2CCS(=O)(=O)C2)c(Cl)c1CNCC(=O)Nc1ccc(F)c(F)c1 (stereo unspecified)
·	-0.4	CC(C)CC(NC(=O)Nc1cccc2ccccc12)C(=O)O (stereo unspecified)
10	0.4	CCn1nc(C)c(NC(=S)NCC2CCCO2)c1C (stereo unspecified)
5	·	CCOc1ccc(NC(=O)N(Cc2ccc(C)cc2)Cc2ccccn2)cc1
3	0.6	Cc1cc(C)nc(N2CC(=O)N=C2N)n1
-10	·	N#C/C(=C\Nc1ccc(C(N)=O)cc1)c1nc(-c2cccc(Br)c2)cs1
9	-1.9	O=C(c1ccc(CS(=O)c2ccc(Cl)cc2)o1)N1CCCC1 (stereo unspecified)

A different layout for 4 compounds above.
O=C(O)CCC(=O)Nc1ccccc1O
  S aureus helic: -8; MgrA-DNA mod: 1.1

CNC(=O)c1c(I)c(C(=O)NCC(=O)Nc2c(I)c(C(=O)O)c(I)c(C(=O)NCCO)c2I)c(I)c(N(C)C(C)=O)c1I
  S aureus helic: ·; MgrA-DNA mod: 1.1

COC(=O)c1cc2occc2n1C
  S aureus helic: 13; MgrA-DNA mod: 0.1

CCOc1ccc(NC(=O)N(Cc2ccc(C)cc2)Cc2ccccn2)cc1
  S aureus helic: 5; MgrA-DNA mod: ·

Additional compounds follow.
S aureus helic	MgrA-DNA mod	SMILES
11	1.7	Cc1[nH]c(=O)[nH]c(=O)c1/C=C/C(=O)O
-21	1.9	CCCNC(=O)c1ccc(CS(=O)(=O)c2ccccc2C)o1
-2	4.8	CCc1ccc(C2C(C#N)=C(N)OC(C)=C2C(=O)OC)cc1 (stereo unspecified)
3	-0.3	CC1=C(c2ccc(C)cc2)S(=O)(=O)NC1=NC1CCCC(C)C1C (stereo unspecified)
·	-3.7	Fc1ccc(CN2CCCN(Cc3ccc(F)cc3)C2c2ccco2)cc1
·	-2.3	Cn1c(=O)[nH]c(=O)c2c1nc(NCc1ccccc1)n2CC(O)COc1cccc2ccccc12 (stereo unspecified)
16	0.9	CCCCN1C(=O)/C(=C2\SC(=Nc3ccc(Cl)cc3)N(C)C2=O)c2ccccc21
·	-0.1	O=C(Cn1cncn1)NCCc1ccccc1
·	3.0	Cc1cc(NC(=O)CCN2C(=O)/C(=C/c3ccc(Cl)cc3)SC2=S)no1
42	·	O=C1CC(c2ccc(Br)cc2)C2=C(CCCC2=O)N1 (stereo unspecified)
4	·	CN(C)c1nc(-c2ccccc2)c(CC(=O)O)s1
·	-0.8	CC(=O)CC(C)=Nc1ccc(C(F)(F)F)cc1
-14	·	Cc1cc(C)n2nc(C(=O)N(C/C=C/c3ccccc3)c3ccc4c(c3)OCCO4)nc2n1
12	·	O=C(CSc1nnc(-c2ccc(Cl)s2)o1)N1CCCc2ccccc21
-16	0.6	CC(=O)Oc1cccc2ccc(=O)[nH]c12
-7	-0.5	CCOc1ccc(C2Nn3c(nnc3-c3ccccc3)SC2C(=O)N2C(C)CCCC2C)cc1 (stereo unspecified)
8	-1.0	NS(=O)(=O)c1ccc(NC(=O)C2CCCO2)cc1 (stereo unspecified)
5	-0.9	O=C(NCCc1ccsc1)c1cnn2ccccc12
-25	2.6	O=C(COC(=O)C1CCC1)Nc1ccc(F)cc1
-17	·	CCCC(CCC)(C(=O)O)C(=O)O
·	-3.5	O=C(O)CNC(=O)OCC1c2ccccc2-c2ccccc21
8	-1.1	CCCC(=O)c1cn(CC(=O)OC)c2ccccc12
4	·	N#CC12CC3CC(CC(C3)C1)C2
-39	·	COc1ccc(-n2nc3ccc(N)cc3n2)cc1
·	3.4	CCOC(=O)c1sc2sc(C(C)=O)c(C)c2c1C
13	·	Cc1nn(-c2ccccc2)c(C)c1/C=C/C(=O)OC(C)C(N)=O (stereo unspecified)
19	·	Nc1c(S(=O)(=O)c2ccccc2)c2nc3ccccc3nc2n1Cc1ccc(S(N)(=O)=O)cc1
·	1.1	COC(=O)/C(C#N)=C1/CCSC1
·	-0.3	CCOC(=O)c1c(C=O)oc2c(C)cc(OC(=O)C34CC5CC(CC(C5)C3)C4)c(Br)c12
·	-0.2	C[C@]12CCC3c4ccc(O)cc4CCC3C1C[C@@H](O)[C@@H]2O (stereo partly specified)

Looked up above.
Reading for C[C@]12CCC3c4ccc(O)cc4CCC3C1C[C@@H](O)[C@@H]2O (stereo partly specified) under MgrA-DNA mod: -0.2
Reading for COC(=O)/C(C#N)=C1/CCSC1 under MgrA-DNA mod: 1.1
Reading for Cc1cc(C)n2nc(C(=O)N(C/C=C/c3ccccc3)c3ccc4c(c3)OCCO4)nc2n1 under S aureus helic: -14

(next part)
S aureus helic	MgrA-DNA mod	SMILES
15	·	NC(=O)c1ccsc1NC(=O)C1COc2ccccc2O1 (stereo unspecified)
19	1.4	CCN(CC)C(=O)COc1ccc2ccccc2c1Br
·	-1.5	CC(C)(CC(=O)O)CC(=O)Nc1cc(C(F)(F)F)cc(C(F)(F)F)c1
·	-1.1	C/C(=N\O)c1ccc(C#Cc2ccccc2)s1
·	-2.9	Cc1cc(Cl)cc(Cl)c1CN(C)C(=O)c1cnc(Oc2ccccc2)cc1C(F)(F)F
12	1.4	COc1ccc(NC(=O)Cn2c(-c3ccccc3)cn(-c3ccc(C)cc3)c2=O)cc1
·	-0.3	CCOC(=O)c1ccc(N=C2SC(C(=O)Nc3ccc(C)cc3C)CC(=O)N2C)cc1 (stereo unspecified)
